WNV protease inh = inhibitors of West Nile virus NS2B-NS3 protease; P06935; WNV NS2B-NS3 protease, fluorogenic substrate Ex360/Em465; stronger effect = lower value; z-score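 (tested at a level between 10 and 100 µM)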; hit rate 0.18% among 65,000; AID 577;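 active = z-score at -3 or under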;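 also: score is relative to mean and spread of the compound wells of a plate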
Target sequence (P06935 1371-1501 limits assumed): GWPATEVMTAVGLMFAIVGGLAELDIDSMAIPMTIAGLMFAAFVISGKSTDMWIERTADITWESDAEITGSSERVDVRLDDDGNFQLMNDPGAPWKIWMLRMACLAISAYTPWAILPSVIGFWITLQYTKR
Target sequence (P06935 1502-1679 limits assumed): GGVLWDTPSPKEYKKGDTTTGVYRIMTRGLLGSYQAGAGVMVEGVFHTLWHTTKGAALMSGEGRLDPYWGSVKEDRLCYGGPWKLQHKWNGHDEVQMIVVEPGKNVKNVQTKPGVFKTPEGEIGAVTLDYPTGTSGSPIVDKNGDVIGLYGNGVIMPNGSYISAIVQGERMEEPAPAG
MT1-MMP reporter = MT1-MMP gene expression reporter suppression – cell-based, luciferase reporter, luminescence (AID 618) | MT1-MMP promoter luciferase reporter cells, luminescence | calls from a first round at 10 µM; hits with a dose series show EC50 in µM | hit rate 0.62% among 87,000;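 active = over half of the reporter light lost at 10 µM or EC50 under 50 µM; inactive = the rest and hits that failed the dose series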;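 also: actives suppress MT1-MMP promoter-driven transcription so potencies describe inhibitors; HT1080 fibrosarcoma cells; overnight exposure; toxic or luciferase-blocking compounds were not removed from the actives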
Hsc70 ATP site = small molecules displacing fluorescent ligand from Hsc70 – biochemical, fluorescence polarization, primary screen (AID 568) | Hsc70 fluorescence polarization, probe displacement; higher % means a stronger effect; strong numbers were not always called active | displacement, % at 20 µM, or IC50 in µM where a hit was titrated | 83,000 tested, under 10 active;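 active = displacement above 50% without optical interference and an IC50 on retest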;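 also: ATPase domain with a fluorescein-tagged ATP probe; 0% = vehicle and 100% = excess ADP; read after one hour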
Active calls of the source: *; i = inactive; x = no result given; + = active, no number.

SMILES | WNV protease inh | MT1-MMP reporter | Hsc70 ATP site
S=c1[nH]ncn1/N=C/c1ccccc1 | -1.1 | i | 1.4%
CC1=CC(C)(C)Nc2ccc(OC(=O)c3ccco3)cc21 | 2 | + | -4.6%
Cc1ccc(CCSCC(=O)O)cn1 | -0.02 | i | 0.9%
CC(C)OC(=O)c1c(NC(=O)c2ccco2)sc2c1CCCCC2 | x | i | -0.7%
Cc1cccc(NC(=O)CCn2nc(C)cc2C)c1 | 0.9 | i | 0.9%
O=C(COc1ccc(Cl)cc1)OCC(=O)N1CCCCCC1 | 0.59 | i | -5.3%
Cc1cc(NC(=O)CCC(=O)N(c2ccccc2)C(C(=O)NC2CCCC2)c2cccs2)no1 (stereo not given) | -0.01 | i | -3.0%
CC1=C(C#N)C(=O)N(C)C(C)(C)C1 | -0.73 | i | 3.8%
COc1cc(-c2nnc(SCC(=O)OC3CCCCC3)o2)cc(OC)c1OC | -0.57 | i | 1.4%
CCOCCN1CCN(c2c(CC)c(C)nc3cc(-c4cc(OC)cc(OC)c4)nn23)CC1 | x | i | 0.7%
CCCc1ccccc1OCCNC(C)=O | -0.23 | i | 6.9%
CCn1c(SCC(=O)N2CCN(c3ccccc3)CC2)nnc1-c1cc2cc(Cl)ccc2o1 | -0.53 | i | -2.9%
CN1CCN(C(=S)Nc2ccc(Cl)cc2Cl)CC1 | x | i | -4.3%
CC1=C(C)NC(=S)SC1 | -0.28 | i | -3.3%
CCOC(=O)c1ccccc1NS(=O)(=O)c1ccc(OC)cc1 | x | i | 2.1%
O=C1CC(c2ccco2)=Nc2ccccc2N1 | -0.25 | i | 3.2%
CC(C)Nc1ncnc2c1cnn2-c1ccccc1 | -0.24 | i | 1.5%
COc1cccc(/C=C2\N=C(SC)SC2=O)c1OC | -0.93 | i | -0.7%
COc1cccc(C2C(C(=O)Nc3cccnc3)=C(C)Nc3nnnn32)c1OC (stereo not given) | 0.49 | i | 0.0%
O=C(O)c1ccc(C(=O)c2ccc3c(c2)C(=O)N(Cc2ccco2)C3=O)cc1 | 1.3 | i | -8.7%
O=c1oc(-c2cccc(S(=O)(=O)N3CCOCC3)c2)nc2ccccc12 | -0.24 | i | -2.5%
O=S(=O)(NCCc1ccccc1F)c1cccc(S(=O)(=O)N2CCOCC2)c1 | 0.42 | i | -5.7%
CC(=O)c1cccc(NC(=O)CN2C(=O)C3C4C=CC(C4)C3C2=O)c1 (stereo not given) | -0.75 | i | -6.3%
O=C(CCCn1c(=S)[nH]c2cc3c(cc2c1=O)OCO3)N1CCN(c2ncccn2)CC1 | 1.8 | i | -1.0%
Cc1ccc(Cn2nnc3c(=O)n(CC(=O)N4CCCCC4)cnc32)cc1 | 1 | i | -0.5%
CCCCCCOC(=O)NCC(O)c1ccccc1 (stereo not given) | -0.31 | i | -2.6%
CCC(C)N=CC1=C(O)C(C(=O)OC)C(C)(C)CC1=O (stereo not given) | x | i | 4.5%
CC(C)C(OC(=O)c1ccco1)C(=O)NCc1ccco1 (stereo not given) | 0.42 | i | 2.2%
CCOc1ccc(S(=O)(=O)Nc2ccc(Cl)cn2)c(C)c1C | 1.3 | i | 6.9%
Cn1c(=O)c2c(ncn2CC(=O)NCc2cccnc2)n(C)c1=O | 0.58 | i | -5.4%
COc1ccc(CCNS(=O)(=O)c2ccccc2)cc1OC | 0.32 | i | -2.5%
CCN1CCN(Cc2ccc(NC(=O)Nc3ccccc3)cc2)CC1 | -0.45 | i | -4.6%
Cc1onc(-c2ccccc2)c1C(=O)NCc1ccccn1 | -0.51 | i | 0.8%
O=C(c1cc(-c2ccccc2O)on1)N1CCCC1 | 0.49 | i | -2.2%
Cn1c(=O)c2c(ncn2CC(=O)OCc2ccccc2)n(C)c1=O | -0.65 | i | 2.0%
Cc1[nH]c2ccccc2c1C(O)CN1CCN(c2cccc(C(F)(F)F)c2)CC1 (stereo not given) | -1.1 | i | -3.9%
CCn1nnc(-c2ccccc2NC(=O)c2cc(OC)cc(OC)c2)n1 | 2.1 | i | 0.5%
CCOc1ccccc1CNCCO | x | i | 4.6%
COc1cc(NC(=O)C2CCCO2)c(C(=O)O)cc1OC (stereo not given) | -0.61 | i | -0.1%
O=C1CN(C(=O)COc2ccccc2)CCN1 | 1 | i | 0.7%
O=C(NC1CCN(Cc2ccccc2)CC1)C1CCN(c2nnc(-n3cccc3)s2)CC1 | -0.57 | i | -5.6%
CC(c1cccnc1)N(CCN(C)C)C(=O)Nc1ccc(Cl)c(Cl)c1 (stereo not given) | -1.1 | i | 0.5%
CCOC(=O)C(C(=O)NCC1CCCO1)C1CCCCC1 (stereo not given) | x | i | 0.7%
COc1ccccc1NC(=O)c1ccc(COc2ccccc2OC)o1 | 0.36 | i | -5.0%
Cc1c(C(=O)OC(C)C)[nH]c2c1C(=O)CCC2 | -1.1 | i | -7.3%
COc1ccc(CCn2c(N3CCOCC3)nc3c2c(=O)[nH]c(=O)n3C)cc1 | x | i | 4.6%
CC(C)CN(CC(C)C)S(=O)(=O)N1CCC(C(=O)NCc2ccc(F)cc2)CC1 | 0.82 | i | 6.8%
CCOC(=O)c1cnc(SCC(=O)c2ccc(C)cc2)nc1N | x | i | -2.1%
CCCN(CCC)C1CC(=O)N(Cc2ccccc2)C1=O (stereo not given) | -0.52 | i | -6.8%
COC(=O)c1cc(NC(=O)C2C3C=CC(C3)C2C(=O)O)cc(C(=O)OC)c1 (stereo not given) | x | i | -3.7%

(next part)
SMILES | WNV protease inh | MT1-MMP reporter | Hsc70 ATP site
O=C(COc1ccccc1)N1CCN(C(=O)c2cccc(F)c2)CC1 | -0.66 | i | 2.9%
COc1ccc(S(=O)(=O)N2CCN(C(=O)COc3ccc4c(C)cc(=O)oc4c3)CC2)cc1 | 0.31 | i | 3.3%
Cc1ccc(-c2cc(C(F)(F)F)n3ncc(C(=O)O)c3n2)cc1 | -0.95 | i | 1.1%
COc1ccc(N(C(=O)c2ccco2)C(C(=O)NC2CCCCC2)c2ccccc2)cc1 (stereo not given) | x | i | -7.3%
O=C(NCc1ccco1)C1CCN(c2ccc(N3CCOCC3)nn2)CC1 | 0.8 | i | 0.7%
CC1(C)CC(=O)C(C=NCCN2CCN(C(=O)CC3CCCC3)CC2)=C(O)C1 | -0.63 | i | 4.4%
COc1ccc(CCNc2oc(-c3ccc(C)cc3)nc2C#N)cc1OC | -0.24 | i | 0.5%
CN(CC(=O)NCc1cccs1)S(=O)(=O)c1cccc2cccnc12 | 0.21 | i | -1.0%
CCOC(=O)C1=C(C)OC(N)=C(C#N)C1C1CCCCC1 (stereo not given) | -0.9 | i | 4.3%
CC(=O)Nc1ccc2c(c1)C(=O)N(c1ccc(C)cc1)C2=O | x | i | -0.5%
COc1ccccc1-c1nc2n(n1)C(c1ccc(Cl)cc1)C(C(N)=O)=C(C)N2 (stereo not given) | -1.3 | i | 3.7%
Cc1ccc(CNC(=O)c2cc3c(=O)n4cccc(C)c4nc3n(CC3CCCO3)c2=N)cc1 (stereo not given) | 0.53 | i | -1.5%
CS(=O)(=O)CCC(C(=O)N1CCOCC1)N1C(=O)c2cc(Cl)c(Cl)cc2C1=O (stereo not given) | 0.02 | i | -4.6%
CCCc1cc(N2CCCC(C(=O)Nc3c(OC)cccc3OC)C2)n2ncnc2n1 (stereo not given) | -0.09 | i | -0.7%
CCCCC(=O)Nc1cccc(NC(=O)CC)c1 | -0.12 | i | -1.3%
COc1ccc(/C=C/C(=O)NNc2c(F)c(F)cc(F)c2F)cc1OC | x | i | 3.4%
COc1cccc(C(c2sc3nc(C)nn3c2O)N2CCc3ccccc3C2)c1 (stereo not given) | -0.43 | i | 0.1%
O=c1n(-c2ccccc2)c(=O)n2n1CCCC2 | -0.61 | i | 8.0%
CCN(CC)C(=O)CSc1nnc(-c2cc3ccccc3cc2O)n1CC | 0.21 | i | -8.5%
CCOc1ccc(OCc2ccc(C(=O)NCC3CCCO3)o2)cc1 (stereo not given) | -0.62 | i | -0.3%

Reformatted with each value named: part of the list above.
> O=C(CCCn1c(=S)[nH]c2cc3c(cc2c1=O)OCO3)N1CCN(c2ncccn2)CC1
- WNV protease inh: 1.8
- MT1-MMP reporter: i
- Hsc70 ATP site: -1.0%

> Cc1ccc(Cn2nnc3c(=O)n(CC(=O)N4CCCCC4)cnc32)cc1
- WNV protease inh: 1
- MT1-MMP reporter: i
- Hsc70 ATP site: -0.5%

> CCCCCCOC(=O)NCC(O)c1ccccc1 (stereo not given)
- WNV protease inh: -0.31
- MT1-MMP reporter: i
- Hsc70 ATP site: -2.6%

> CCC(C)N=CC1=C(O)C(C(=O)OC)C(C)(C)CC1=O (stereo not given)
- WNV protease inh: x
- MT1-MMP reporter: i
- Hsc70 ATP site: 4.5%

Later entries.
SMILES | WNV protease inh | MT1-MMP reporter | Hsc70 ATP site
COC(=O)c1ccc(CSc2nc3ccccc3c(=O)n2-c2ccccc2)o1 | x | i | 3.4%
CCc1ccc(NC(=O)CN2CCc3ccccc3C2)cc1 | x | i | 3.4%
CC1(C(=O)O)CCC(C(=O)Nc2ccc(S(N)(=O)=O)cc2)C1(C)C (stereo not given) | 0.25 | i | 1.3%
COC(=O)CSc1nc(C2CC2)cc(C(F)(F)F)c1C#N | -0.24 | i | -3.1%
COc1ccc(-c2nc(N)n[nH]2)cc1OC | -0.05 | i | -4.7%
COC(=O)c1nc(NC(=O)c2ccc(Br)cc2)n[nH]1 | x | i | -0.3%
COc1ccccc1N1CCN(C(=O)c2ccc(C(C)(C)C)cc2)CC1 | -0.67 | i | -2.9%
O=C(c1ccc2c(c1)C(=O)N(CCCO)C2=O)c1ccc2c(c1)C(=O)N(CCCO)C2=O | -0.87 | i | -2.9%
O=C(N1CCCCC1)C12CC3CC(C1)CC(C(=O)N1CCCCC1)(C3)C2 | -0.08 | i | 2.8%
CCCCC(=O)NC(Nc1nc(C2CC2)cs1)(C(=O)OCC)C(F)(F)F (stereo not given) | 0.42 | i | -3.7%

Next section (6 carried over from the part before).
SMILES | WNV protease inh | MT1-MMP reporter | Hsc70 ATP site
COc1ccc(-c2nc(N)n[nH]2)cc1OC | -0.05 | i | -4.7%
COC(=O)c1nc(NC(=O)c2ccc(Br)cc2)n[nH]1 | x | i | -0.3%
COc1ccccc1N1CCN(C(=O)c2ccc(C(C)(C)C)cc2)CC1 | -0.67 | i | -2.9%
O=C(c1ccc2c(c1)C(=O)N(CCCO)C2=O)c1ccc2c(c1)C(=O)N(CCCO)C2=O | -0.87 | i | -2.9%
O=C(N1CCCCC1)C12CC3CC(C1)CC(C(=O)N1CCCCC1)(C3)C2 | -0.08 | i | 2.8%
CCCCC(=O)NC(Nc1nc(C2CC2)cs1)(C(=O)OCC)C(F)(F)F (stereo not given) | 0.42 | i | -3.7%
COc1ccc(CCNS(=O)(=O)c2ccc3c(c2)OCCO3)cc1OC | -0.12 | i | 0.0%
COCCNS(=O)(=O)c1cccn1-c1ncc(C(F)(F)F)cc1Cl | x | i | 5.5%
CC(C)CC(=O)c1c[nH]c(C(=O)NCc2cccs2)c1 | x | i | -1.3%
COC(=O)c1nc(C(=O)OC)c(C(=O)OC)nc1C(=O)OC | -0.67 | i | -4.4%
Cn1c(=O)c2c(nc(CN3CCN(c4ccc(F)cc4)CC3)n2CCN2CCOCC2)n(C)c1=O | 1.6 | i | -6.0%
CC1(C)Oc2ccc3ccc(=O)oc3c2/C(=C/Nc2ccccn2)C1=O | -0.58 | i | -3.5%
CC1(C)OC(=O)C(=NNc2ccc(O)cc2)C(=O)O1 | x | i | 0.7%
O=C(Nc1ccc(CCC(=O)N2CCCC2)cc1)c1ncn[nH]1 | 0.21 | i | -3.7%
Cc1cnc(NC(=O)CSc2nnc(-c3ccccc3)n2Cc2ccccc2)s1 | 0.22 | i | 1.7%
Cc1[nH]c2ccccc2c1SCC(=O)N1CCOCC1 | 0.91 | i | 1.0%
CCOc1nc(NCc2ccco2)nc(Nc2ccccc2F)n1 | x | i | 4.2%
Cc1cc(C(=O)CSc2n[nH]c(N)n2)c(C)n1-c1cc(F)ccc1F | 0.29 | i | -3.5%
c1ccc2c(-c3nc4ncccc4o3)cccc2c1 | 0.89 | i | -4.1%
Cn1nc([N+](=O)[O-])nc1Oc1ccccc1N | x | i | -8.4%
CNC(=O)CSc1nnc(-c2cc(C)cc(C)c2)o1 | 0.28 | i | 5.2%
CCn1c(=O)cc(OCC(=O)NCc2ccco2)c2ccccc21 | -0.02 | i | -1.9%
Cc1cc(C)c(C#N)c(SCC(O)CS(=O)(=O)Cc2ccccc2)n1 (stereo not given) | -0.48 | i | 0.9%
CCc1nc(NCC2CCCO2)c2oc3ccccc3c2n1 (stereo not given) | 0.33 | i | 6.7%
CCC(=O)Nc1c(C#N)c2nc3ccccc3nc2n1-c1ccc(C)cc1 | 0.58 | i | -6.8%
Cc1nn(-c2ccccc2)c(C)c1C(=O)OCC(=O)NC(=O)NC1CCCCC1 | -0.01 | i | 2.2%
CCCC(=O)Nc1nc2nc(-c3ccccc3)cc(-c3ccccc3)n2n1 | x | i | 2.3%
CCOC(=O)COc1ccc2c(c1)C(=O)CC(C)(C)O2 | 2.5 | i | -2.6%
CCOCCCNC(=O)CCNS(=O)(=O)c1ccc(C)cc1 | -0.33 | i | -3.2%
CN(Cc1ccccc1)Cc1nc2c(c(=O)n(C)c(=O)n2C)n1CCc1ccccc1 | -0.12 | i | 1.2%
COc1ccc2c(=O)c3c(=O)n(Cc4ccco4)c(-c4ccc(C)cc4)nc3oc2c1 | -0.87 | i | 4.1%
CS(=O)(=O)N(CC(=O)NCc1ccncc1)c1cc(Cl)cc(Cl)c1 | -0.98 | i | 3.9%

Assay outcomes from PubChem.
